AID504770: growth inhibition of E. coli YBA685, primary screen, V. cholerae RctB inhibitors. E. coli YBA685 rctB-dependent plasmid, OD600 growth, 3 h; hits give low values. z-score (no concentration beside the values). 130,000 compounds, 0.27% hits;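 active means z-score under -2 on both plates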;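 further: wells of about 30 µL received 100 nL stock; score is relative to mean and SD of the test wells; the first replicate is given; strong numbers were not always called active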
Ba CapD inh: Bacillus anthracis CapD inhibitors, primary screen, biochemical, fluorescence intensity; z-score (concentration not given with the values); 140,000 compounds, 0.23% hits; CapD gamma-glutamyltranspeptidase (Bacillus anthracis Ames Ancestor); purified CapD enzyme, fluorescence intensity read-out; hits give low values; some hits fall short of the stated cut; AID 492967, 2010;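 active means z-score under -4 in either of two replicates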;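 further: stock transfer was 100 nL into about 40 µL; score is relative to mean and spread of the plate; one replicate is shown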
Starred values were filed as active, the others as inactive; . = not tested or not shown.

Structure | Ba CapD inh | AID504770
CC(=O)O[C@@H]1O[C@@H]2CO[C@@H](c3ccccc3)O[C@H]2[C@H](OC(C)=O)[C@H]1OC(C)=O | 0.83 | -0.3
Cc1cc(C(=O)NNC(=O)c2ccoc2)n[nH]1 | -0.67 | .
CS(=O)(=O)c1ccc(S(=O)(=O)N2CCC(O)(c3cccc(C(F)(F)F)c3)CC2)cc1 | 0.39 | .
Cc1nc(SCCC(=O)O)c2ccccc2n1 | . | 0.1
Cc1nc2ccc(NC(=O)c3cccc(Br)c3)cc2s1 | -0.085 | .
Cc1ccc(N/C(SCc2ccccc2C)=C(/C#N)C(N)=O)cc1C | 0.15 | .
O=C(/C=C\c1ccc(-c2ccc(F)cc2)o1)Nc1ccc(N2CCOCC2)cc1 | -0.74 | -0.15
Cc1ccc2cc(NC(=O)Cc3ccccc3)ccc2n1 | 15 | -0.3
CCc1ccc(S(=O)(=O)NCC(=O)O)cc1 | 1.1 | 0.15
NC(=O)c1sc2nnc(-c3ccccc3)c(-c3ccccc3)c2c1N | 0.34 | -0.15
COC(=O)Cn1cnc2c(nnn2Cc2ccccc2F)c1=O | -1.4 | 3.5
Cc1nc2ccccn2c1C(=O)N/N=C/c1ccccc1 | -3.9 | -1.4
Cc1ccccc1N1CC(O)(c2ccc(OC(F)F)cc2)[N+]2=C1CCCC2 (stereo not given) | 0.01 | .
O=C(O)COCC(=O)Nc1ccc2c(c1)oc1ccccc12 | 64 | 0.7
CC(=O)Nc1ccc(Nc2cc(C)c3ccccc3n2)cc1 | 20 | -0.1
C#Cc1cccc(NC(=O)NC(=O)c2ccccc2Cl)c1 | 0.52 | .
O=C(NC(=S)Nc1ccc2c(c1)C(=O)c1ccccc1C2=O)c1ccc(Br)cc1 | -0.35 | .
Cc1[nH]c2ccccc2c1C(c1ccccn1)N1CCCCC1 (stereo not given) | -0.69 | -0.4
Cn1c(Sc2nc3ccc(Cl)cc3s2)nnc1-c1ccc2ncccc2c1 | -0.44 | .
COC(=O)c1ccc(C(=O)NC(=S)Nc2nc3c(s2)CCCC3)cc1 | 1.2 | -0.55
O=c1c2ccccc2nc2n1C(CSc1c(Cl)cccc1Cl)CS2 (stereo not given) | 0.21 | .
O=[N+]([O-])c1cccnc1Oc1ccc(OCc2ccccc2)cc1 | 0.56 | .
CN(C)S(=O)(=O)c1cc(C(=O)NCCc2ccccc2)c(Cl)cc1Cl | -0.49 | 0.55
COc1ccc(Br)cc1C1C(N2C(=O)c3cccc([N+](=O)[O-])c3C2=O)C(=O)N1c1ccc(Br)c(C)c1 (stereo not given) | 0.15 | .
CCOC(=O)c1ccc(N2C(=O)C3C4C=CC(C(OC(C)=O)OC(C)=O)(O4)C3C2=O)cc1 (stereo not given) | -0.12 | .
Cc1nc(C)c(S(=O)(=O)NCc2csc(-c3cccs3)n2)s1 | 30 | 0.35
CCOCc1nc2c(c(=O)[nH]1)C1(CCCC1)Cc1ccccc1-2 | 0.26 | .
CCC(=O)N1CCN(c2ccnc3cc(Cl)ccc23)CC1 | -0.88 | 1.1
COc1ccc(-c2nn(CCC(=O)O)cc2C=C2C(=O)NC(=S)NC2=O)cc1OC | . | 0.2
Cc1ccc(NC(=O)C2CCCN(S(=O)(=O)c3ccc4nc(-c5ccccc5)[nH]c4c3)C2)cc1 (stereo not given) | 0.16 | 0.4
CSc1nc(C)c(C(=O)CNc2ccccc2)cc1C#N | . | -0.35
O=C(CSc1nnc(Cc2ccccc2)o1)NCCc1ccccc1 | 0.2 | -0.5
Cc1cc(C)nc(N2CCNCC2)n1 | . | -0.1
CC(=O)Oc1ccc2c(c1)CCC1C2CC[C@]2(C)C(=O)CCC12 (stereo not given in full) | . | 0.6
O=C(/C=C/c1cccs1)Nc1nc2ccc(Br)cc2s1 | 0.69 | -0.25
CC(C)(C)SCC(=O)O | . | 0.15
OC1(c2ccco2)CSC(=Nc2cccnc2)N1C1CC1 (stereo not given) | . | 1.2
COc1ccc(C(=O)N=c2sc3ccccc3n2C)cc1 | . | -1.1
O=C(CCc1ccccc1)NCc1ccco1 | . | 0.15
Cc1cc(C2C(C#N)=C(N)N(c3ccccc3Cl)C3=C2C(=O)CC(c2ccccc2)C3)c(C)s1 (stereo not given) | 0.11 | -0.25
O=C(CN1CCCCCC1=O)NCCOc1ccccc1F | . | -0.7
COc1ccccc1C(=O)NCCOCCO | -0.34 | .
COc1ccc2cc(S(=O)(=O)N3CCN(Cc4ccccc4)CC3)ccc2c1 | 0.17 | -0.55
Cc1cc(C(=O)OCc2nc3ccccc3s2)c(C)o1 | . | -0.7
CCCC(=O)Oc1c[nH]c2ccccc12 | 3.9 | -0.8
O=C(N1CCOCC1)N1CCN(c2ccccc2)CC1 | . | -0.2
Clc1ccc(-c2csc(Nc3ncccn3)n2)c(Cl)c1 | 0.03 | 0.85
COc1ccccc1NC(=O)Cn1cnc2sc(C(=O)OC(C)C)c(C)c2c1=O | 0.49 | 0.2
O=c1cc(-c2ccccc2)oc2ccccc12 | -0.45 | 0.45
CC(C)CC(=O)Nc1cccc(-c2nnc(-c3cccc(NC(=O)CC(C)C)c3)o2)c1 | . | -1.4
O=c1c2ccccc2nnn1CSC(=S)N1CCCC1 | . | 1.1
Cc1ccc(C)c(CSC2=NCCN2C(=O)COc2ccccc2)c1 | -0.29 | -0.75
Cc1c(S(=O)(=O)c2ccc(Cl)cc2)csc1C(=O)Nc1ccc(F)cc1F | 0.66 | 0.7
N#C/C(=C\c1cn(-c2ccccc2)nc1-c1ccccc1)C(=O)N1CCCCC1 | . | 0.4
CCCNC(=O)c1cc(=O)n(Cc2ccc(C)cc2)c2ccccc12 | -0.68 | 2
O/N=C1/C(=C\c2cccc(O)c2)N2CCC1CC2 | -0.14 | .
C/C(=N/OC(=O)c1ccccc1)C(=O)c1cccs1 | -0.005 | -0.95
O=c1c(C=Nc2ccc(F)cc2)c(C(F)(F)F)[nH]n1-c1ccccc1 | -0.96 | .
CC1(C)Cc2ccccc2-c2nnc(SCC(=O)N3CCCCC3)n21 | . | -0.6
CCN(CC)C(=O)CSc1nnc2nnc3ccccc3n12 | -0.47 | 0

Next section.
Structure | Ba CapD inh | AID504770
CCN(CC)S(=O)(=O)c1ccc(C(=O)N2CCN(c3ccccc3)CC2)cc1 | . | -1
O=C(CSc1nc(-c2ccccc2)cc(=O)[nH]1)c1ccc([N+](=O)[O-])cc1 | -0.72 | .
CCn1c(SCC(N)=O)nnc1-c1ccoc1C | . | -0.45
CCOC(=O)N1CCC(N2Cc3cccc(C(=O)Nc4ccc(S(=O)(=O)N(CC)CC)cc4)c3C2=O)CC1 | -1.4 | 2
O=C1c2ccccc2C(=O)N1CCn1c(=O)oc2ccccc21 | 0.76 | 0.3
O=C(NC1CCCC1)c1cc2c(Cl)ccc3c2n1CCO3 | 80 | 0.8
CC1CCCCC1NS(=O)(=O)c1ccc(S(=O)(=O)N2CCN(c3ncccn3)CC2)cc1 (stereo not given) | -0.35 | 1.2
Cc1cc(C)nc(N(C#N)CCOc2ccccc2)n1 | 0.36 | -0.05
Cc1c(Cc2c(C)n(C)n(-c3ccccc3)c2=O)c(=O)n(-c2ccccc2)n1C | -0.67 | -0.75
COc1cc(OC)c(N2C(=O)C=CC2=O)cc1Cl | -0.8 | -0.3
O=C(O)c1cccc(NC(=O)C2CC=CCC2C(=O)O)c1 (stereo not given) | 0.17 | -0.6
Clc1ccc(-c2csc(-c3ccsc3)n2)s1 | 12 | 0.25
Cc1ccc(CNc2nc3c(S(=O)(=O)c4cc(C)ccc4C)nnn3c3ccccc23)cc1 | 0.055 | -0.25
CCCCCCCCOc1ccc(C2Oc3ccccc3C3CC(c4ccccc4)=NN32)cc1 (stereo not given) | 0.03 | .
CCCCN(CC)C(=O)c1cc2cc3ccc(OC)cc3nc2o1 | -0.28 | -0.05
Cc1c(Cl)cccc1NC(=O)c1cccs1 | 0.48 | -0.1
COC(=O)[C@H](CCSC)NC(=O)c1cccnc1SC | 0.33 | .
CC1CCc2c(sc3nnn(CC(=O)c4cccs4)c(=O)c23)C1 (stereo not given) | 0.4 | -0.5
CC1(C)OC(CN)C(CN)O1 (stereo not given) | 0.075 | -0.55
COc1ccc(CCn2c(-c3ccc(F)cc3)csc2=Nc2cccc(C(F)(F)F)c2)cc1OC | -0.28 | .
Cc1ccc(CSc2nnc(NC(=O)C3=NNC(=O)CC3)s2)cc1 | . | -0.45
O=C(CSc1nc(-c2ccccc2)cs1)NCCCN1CCCC1=O | . | -0.25
Cc1ccc(NCC(O)c2ccc(Cl)cc2)cc1 (stereo not given) | -0.34 | -0.4
O=C(O)/C=C\C(=O)Nc1cccc(C(F)(F)F)c1 | 0.38 | -0.75
O=C1Nc2c(S(=O)(=O)N3CCOCC3)cc(S(=O)(=O)N3CCOCC3)c3cccc1c23 | -0.78 | .
CC(=O)c1cc2cc(Cl)cc(Cl)c2oc1=O | -0.26 | .
O=c1ccc(-c2nc3cc(Cl)c(Cl)cc3n2Cc2ccccc2)c[nH]1 | 0.14 | .
O=C(N/N=C/c1ccc(Br)cc1)C1C(c2ccccc2)C(C(=O)N2CCOCC2)C1c1ccccc1 (stereo not given) | 5.8 | .
CC1(C)CC(NC(=O)CCCC(=O)O)CC(C)(C)N1 | . | -0.2
Cc1cc(=O)oc2c3c(ccc12)O/C(=C/c1cc(Br)cc(Br)c1O)C3=O | 4.5 | .
C=CCN(CC=C)S(=O)(=O)c1ccc(NC(=O)Nc2ccccc2)cc1 | -0.21 | -0.85
Cc1ccccc1COc1ccccc1C(=O)O | . | 0.6
O=C(OCc1cn(-c2ccc(Cl)cc2)nn1)C(Cl)(Cl)Cl | -0.7 | .
O=C(Oc1ccc2oc(=O)sc2c1)c1ccccc1 | 0.55 | 0.15
CC(C)(CN=C1NS(=O)(=O)c2ccccc21)CNC(=O)c1ccccc1Cl | -0.72 | 1.8
CCOC(=O)C1=C(C)N=c2s/c(=C\c3c[nH]c4ccccc34)c(=O)n2C1c1ccc(OCC)c(OCC)c1 (stereo not given) | 0.075 | .
O=C(CCc1c[nH]c2ccccc12)OCN1C(=O)c2ccccc2C1=O | . | 0.6
Cc1ccc(-c2noc(CNc3ccc(Oc4ccccc4)cc3)n2)cc1 | -0.73 | 1.1
O=C(O)c1c[nH]c(=O)cc1C(F)(F)F | 41 | -0.15
CCOc1cccc(C(=O)N2CCCCC2c2cccnc2)c1 (stereo not given) | -0.96 | 1.6

An excerpt of these results, with values under each structure.
Each structure is followed by: Ba CapD inh | AID504770
- Cc1ccc(NCC(O)c2ccc(Cl)cc2)cc1 (stereo not given)
→ -0.34 | -0.4
- O=C(O)/C=C\C(=O)Nc1cccc(C(F)(F)F)c1
→ 0.38 | -0.75

Continued:
Structure | Ba CapD inh | AID504770
CCN1C(=O)c2cccc3c(NC(=O)c4ccc(S(=O)(=O)N5CCCC5)cc4)ccc1c23 | -0.44 | .
CCC(C)NC(=O)Cn1c(=O)n(-c2ccc(Cl)c(Cl)c2)c(=O)c2c(C)c(C)sc21 (stereo not given) | -0.2 | 0.9
COc1cc(C)c2c(=O)cc(-c3ccccc3)oc2c1 | -1.5 | .
O=C(CNC(=O)c1ccc2ccccc2c1)NCc1ccccn1 | . | 0.2
NNC(=O)c1c(O)c2ccccc2[nH]c1=O | . | -0.5
Cc1c(C(=O)NC2CCCc3ccccc32)oc2ccc(S(=O)(=O)N3CC(C)CC(C)C3)cc12 (stereo not given) | 0.4 | -0.15
O=C(NCC1(c2ccccc2)CCCC1)c1ccc(Cl)cc1 | 0.43 | -0.4
Cc1cc(C(=O)O)c(C)n1C | -0.83 | .
CNCC(=O)NC1CC1 | . | 0.15
O=C(Nc1ccccc1)Nc1c2ccccc2nc(=O)n1Cc1ccccc1 | . | -1.1
O=C(CN1CC(=O)Nc2ccccc21)Nc1cccc(Cl)c1 | . | 1.8
Cc1cc(=O)oc2c3c(ccc12)O/C(=C\c1ccc(O)cc1)C3=O | -0.28 | .
COc1cc(OC)nc(C(=O)N2CCN(C(c3ccccc3)c3ccccc3)CC2)n1 | -0.25 | .
Clc1ccccc1C(c1nnnn1Cc1ccco1)N1CCN(Cc2ccco2)CC1 (stereo not given) | . | -0.2
CC1(C)Cc2[nH]c(=S)c(C#N)cc2CO1 | . | 1.1
CN(Cc1ccccc1)C(=O)c1ccccc1Cl | -0.14 | -0.9
CC(Oc1ccc(C(C)C)cc1)C(=O)Nc1nccs1 (stereo not given) | . | 2
CCOc1ccc(CCNC(=O)C2CCN(S(C)(=O)=O)CC2)cc1OCC | 12 | -0.45
CC(=O)O/N=C(\N)c1nccnc1Sc1ccc(Cl)cc1 | 0.22 | -0.2
O=C1CC(c2nc3ccccc3[nH]2)CN1Cc1ccccc1 (stereo not given) | 0.35 | 0.65

Filtered by structure, the entries above with a CF3 group.
Structure | Ba CapD inh | AID504770
CS(=O)(=O)c1ccc(S(=O)(=O)N2CCC(O)(c3cccc(C(F)(F)F)c3)CC2)cc1 | 0.39 | .
O=c1c(C=Nc2ccc(F)cc2)c(C(F)(F)F)[nH]n1-c1ccccc1 | -0.96 | .
COc1ccc(CCn2c(-c3ccc(F)cc3)csc2=Nc2cccc(C(F)(F)F)c2)cc1OC | -0.28 | .
O=C(O)/C=C\C(=O)Nc1cccc(C(F)(F)F)c1 | 0.38 | -0.75
O=C(O)c1c[nH]c(=O)cc1C(F)(F)F | 41 | -0.15

Later entries:
Structure | Ba CapD inh | AID504770
O=C(Nc1ccccc1)c1cccnc1 | . | -0.65
N#Cc1ccc(NC(=O)CS(=O)(=O)c2ccccc2)cc1 | -0.035 | -0.6
COc1cccc(OC)c1C1N=C(N)Nc2nc3ccccc3n21 (stereo not given) | . | -0.45
CC(=O)Oc1ccc2c(c1)CCC1C2C(C)(O)CC2(C)C(OC(C)=O)CCC12 (stereo not given) | 0.13 | 1.9
COc1ccc(NC(=O)Nc2ccc(N3CCCC3=O)cc2)cc1OC | -0.23 | 2.2

Screening data from PubChem BioAssay.

The list is partial; the hit share may differ from the screen's.
